D2 ag: activates the human D2 dopamine receptor | P14416 | 360,000 tested, 0.084% active | activation, % (test concentration not listed) | DiscoveRx PathHunter D2 beta-arrestin, luminescence, 90 min; 100% = 57 uM dopamine signal; in the data active = activation above about 40%; inconclusive = about 15% to 40%; inactive = below about 15%; note: compound concentration not given in the record; the text of the record calls up to 30% inactive
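Agonist mode: compounds alone added to overnight-plated D2 PathHunter cells for 90 min at 37 C, with 57 uM final dopamine (EC100) defining full response. Beta-arrestin recruitment detected by chemiluminescent reagent, read after 1 h at ambient temperature.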
TRPV1 PAM: human TRPV1 potentiation; Q8NER1; AID 540277; 320,000 tested, 0.02% active; TRPV1-expressing cells, Fluo-8 calcium influx, capsaicin EC20 potentiation; host cell line not named in the record; control for the full effect not named in the record; potentiation, % at 8.33 µM; active means potentiation above 80%; inconclusive means 30% to 80%; inactive means below 30%; note: 0% is about no effect
Target sequence (Q8NER1 whole entry, looked up): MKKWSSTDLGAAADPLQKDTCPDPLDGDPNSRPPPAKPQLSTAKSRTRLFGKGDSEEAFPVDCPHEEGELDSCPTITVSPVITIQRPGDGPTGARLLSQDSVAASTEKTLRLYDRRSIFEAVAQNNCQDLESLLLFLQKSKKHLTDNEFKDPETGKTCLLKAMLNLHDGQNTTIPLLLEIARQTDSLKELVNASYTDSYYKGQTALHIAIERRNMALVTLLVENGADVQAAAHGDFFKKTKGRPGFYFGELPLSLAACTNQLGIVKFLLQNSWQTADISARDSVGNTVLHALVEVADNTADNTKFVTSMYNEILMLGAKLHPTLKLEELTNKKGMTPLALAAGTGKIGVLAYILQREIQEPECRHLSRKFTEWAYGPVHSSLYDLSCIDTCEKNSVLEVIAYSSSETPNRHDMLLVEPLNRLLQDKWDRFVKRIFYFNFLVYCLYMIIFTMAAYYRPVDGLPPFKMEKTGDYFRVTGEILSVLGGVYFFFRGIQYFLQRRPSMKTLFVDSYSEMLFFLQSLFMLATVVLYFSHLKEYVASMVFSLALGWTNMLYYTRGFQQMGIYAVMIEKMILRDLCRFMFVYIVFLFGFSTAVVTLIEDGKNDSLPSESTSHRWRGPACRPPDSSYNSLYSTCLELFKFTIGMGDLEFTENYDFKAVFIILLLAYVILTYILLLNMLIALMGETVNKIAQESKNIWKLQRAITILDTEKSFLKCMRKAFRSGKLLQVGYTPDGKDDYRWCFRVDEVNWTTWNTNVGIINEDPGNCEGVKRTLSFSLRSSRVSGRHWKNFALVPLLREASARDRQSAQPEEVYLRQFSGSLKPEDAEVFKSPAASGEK
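Fluo-8 calcium influx in TRPV1-expressing cells, kinetic read (ex 480/em 520 nm). Compound added and read 3 min for agonist activity, followed by capsaicin at EC20 final and 2 min further read for enhancement.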
Sfp PPTase inh: blocks B. subtilis Sfp PPTase activity; Biochemical Sfp PPTase activity, qHTS; Potency, µM, for the others: max response, negative = inhibition, most hits filed as inhibitors; 310,000 tested, 3.5% active; active = well fitted inhibition curve with a large enough effect; inconclusive = small, poorly fitted or top-dose-only effect, or another doubt; inactive = no such curve, though single readings can be large or run the other way;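 note: the enzyme is Sfp with the accession as filed and its product quenches rhodamine fluorescence; potency is the fitted concentration of half-maximal effect; 0% = enzyme reaction without inhibitor and -100% = no enzyme wells; top concentration of the series not given in the record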
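Step 1, compound plus 15 nM Sfp-PPTase, 15 min, room temperature. Step 2, add rhodamine-CoA (5 uM) and BHQ-2-YbbR (12.5 uM). Step 3, read 525/598 nm fluorescence at 0 and 30 min.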
Six1-Eya2 inh: inhibitors of human Six1/Eya2 interaction; AlphaScreen GST-Six1/His-Eya2 binding, biochemical; hits give low values; control for the full effect not named in the record; activity change, % (concentration not given with the values); 360,000 tested, 0.56% active; AID 651725; in the data active = activity change below about -65%; inconclusive = about -30% to -65%; inactive = above about -30%; note: % is set by controls: 0 for no effect and ±100 for the full control effect
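AlphaScreen with GST-Six1 and His-Eya2 (5X mix: 250 nM and 500 nM), glutathione donor and nickel acceptor beads; buffer 50 mM Tris pH 8.0, 300 mM NaCl, 1 mM TCEP; 1 h at 37 C in the dark.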
PINK1 modulator: changes PINK1 expression | Potency, µM (titrated, usually from 76.6 µM), for inactives: at the top dose activation (PINK1 increase), usual class: activators | AID 624263 | 410,000 tested, 0.2% active | PINK1 immunofluorescence, high-content cytometry, 24 h; active = well fitted activation curve with a large enough effect; inconclusive = small, poorly fitted or top-dose-only effect; inactive = flat fitted curve, though single readings scatter; cell line not stated here;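 note: potency is the fitted concentration of half-maximal effect; % of control where 0% means no effect; nearly all actives have a fitted effect of over 65% in size; a mitochondrial uncoupler was the plate control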
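PINK1 protein, normally rapidly degraded, was detected by immunofluorescence after 24 hour compound treatment of a stable cell line. Titration data (5 concentrations) came from laser-scanning cytometry, with CCCP-treated wells as controls.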
CtBP-E1A inh: CtBP/E1A binding inhibition; AlphaScreen GST-E1A/His-CtBP binding, 1536-well; hits give low values; control for the full effect not named in the record; activity change, % (no concentration beside the values); 340,000 tested, 0.49% active; AID 651724; in the data active means activity change below about -65%; inconclusive means about -30% to -65%; inactive means above about -30%; note: % is set by controls: 0 for no effect and ±100 for the full control effect; compound concentration not given in the record
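AlphaScreen with 125 nM GST-E1A and 125 nM His-CtBP (5X stocks) in Tris pH 8.0, 300 mM NaCl, BSA, Tween 20, TCEP. Compounds preincubated 2 h at 37 deg C, then glutathione donor/nickel acceptor beads added for 1 h at 37 deg C in dark.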
D2 PAM: human D2 receptor positive allosteric modulation; potentiation, % (test concentration not listed); DiscoveRx D2 beta-arrestin cells, luminescence, 90 min; 100% = 57 uM dopamine signal; 360,000 tested, 0.23% active; P14416; AID 624464; active = potentiation of 50% or more; inconclusive = 30% to 50%; inactive = 30% or less;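 note: compound concentration not given in the record; tested on top of an EC20 dose of dopamine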
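D2 cells co-treated with compound plus 50 nM dopamine (EC20) for 90 min at 37 deg C to detect potentiation. Beta-arrestin recruitment was read as enzyme-fragment luminescence after 1 h at ambient temperature. Full response was set by 57 uM dopamine.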
Active calls of the source: *; ? = inconclusive; . = not tested or not shown; & = joins results of further samples; [ ] = another dose, or the depositor's remark. The order is random; overall some 3.7% were active at least once.

canonical_smiles,TRPV1 PAM,PINK1 modulator,D2 ag,Sfp PPTase inh,CtBP-E1A inh,Six1-Eya2 inh,D2 PAM
NC(=O)CSc1cn(Cc2ccccc2)c2ccccc12,1,-0.7%,-11,-28%,1,-2,-5
O=C(COc1ccc(Cl)cc1)NCc1nnc2c3ccccc3c(-c3ccccc3)nn12,0,-0.8%,0.6,-1%,.,-10,-10
CC(C)CC(NC(=O)C1CCC(C)CC1)C(=O)Nc1ccc2c(c1)OCCO2 (stereo not given),.,0.7%,-3.8,16%,-9,0,-6
O=C(Nc1ccccc1)c1c(F)c(F)c(F)c(F)c1F,-8,.,3.1,8%,11,10,4
COc1ccc(-c2nnc(SC(C)C#N)o2)cc1 (stereo not given),-6,-1.8%,-3.6,8%,6,-2,-8
COc1cc(N2CCCC2)c(OC)cc1/C=C(/C#N)c1cccc(F)c1,-1,17%,-4.9,?,?,-72*,-25
CC1CN(CCOc2ccc(Cl)c(Cl)c2)CC(C)O1 (stereo not given),0,6.1%,3.0,-28%,7,0,-24
COc1ccc(OC(C)C(=O)Nc2ccccc2C(F)(F)F)cc1 (stereo not given),2,12%,1.2,-11%,0,12,-8
CCCc1nc(SCc2cccnc2)c2c(=O)n(C)c(=O)n(C)c2n1,8,1.7%,-2.2,-22%,1,-5,-10
COC(=O)Cc1c(O)ccn(CCc2ccc(S(N)(=O)=O)cc2)c1=O,13,0.5%,-1.5,6%,.,8,-2
Cc1oc2c(c1C(=O)N1CCC(C)CC1)C(=O)c1ccccc1C2=O,-3,-0.1%,2.4,-22%,-11,10,2
COc1ccc2nc(NC(=O)CSc3nnnn3C3CCCCC3)sc2c1,22,2.0%[38.3 µM],1.3,-5%,-6,-9,1
CC(C)(Oc1ccc(Cl)cc1)C(=O)Nc1ccncc1,-16,-1.4%,1.3,1%,15,2,-12
CCCCn1nc(C(=O)N(CC(C)C)c2c(N)n(CCCC)c(=O)[nH]c2=O)c2ccccc2c1=O,-3,0.8%,-3.3,.,1,1,12
COc1cccc(Nc2ccccc2C(=O)O)c1,5,0.5%,2.9,11%,-2,1,10
COCCNc1nc(N2CCCCC2)c2cnn(C)c2n1,-1,-0.2%,-3.6,15%,.,7,-10
O=C1CC2(CCN(C(=O)COc3ccccc3F)CC2)Oc2ccccc21,-20,-2.3%,-3.9,.,4,-4,13
CC(=O)Nc1ccc(S(=O)(=O)NCCS(=O)(=O)N2CCN(c3ccccc3F)CC2)cc1,1,0.0%&0.2%,4.2,16%,6,1,4
N#Cc1c(-c2ccccc2)cc(-c2ccccc2)nc1Br,-10,4.1%,-2.4,-22%,13,37,-2
CCOc1ccc(CC(=NCCO)C2=C(O)CC(C)(C)CC2=O)cc1OCC,3,-0.8%,-2.8,1%,-7,0,-14
CCC(C)(C)C1CCc2[nH]nc(C(=O)NCCNC(=O)OC(C)(C)C)c2C1 (stereo not given),13,0.9%,0.3,.,3,-2,-13
CCOc1ncccc1C(=O)NCc1ccc(OC)c(OC)c1,10,2.0%,2.8,14%,-2,1,-4
CN(/N=C/c1cccc(Br)c1)C1=NS(=O)(=O)c2ccccc21,2,1.3%,-2.4,2%,-23,?,-3
COC(=O)c1ccc(C(C(=O)NCc2ccccc2)N(Cc2ccco2)C(=O)c2cnccn2)cc1 (stereo not given),-10,.,-0.3,-1%,12,-3,-13
COc1cccc(N2CCN(C(=O)c3ccc4nc(N5CCCCC5)sc4c3)CC2)c1,5,-3.7%,-0.8,-9%,-12,-11,-1
CC1(C)CC(=O)c2cnc(NC(=O)CCc3ccccc3)nc2C1,-12,-0.1%,2.1,24%,-4,1,-13
Cc1nn(C)cc1/C=C1\SC(=S)NC1=O,6,-0.9%,-7.0,-13%,-3,0,-11
CCOC(=O)c1ccc(NC(=O)c2nn(CC)cc2Br)cc1,-8,5.7%[38.3 µM],0.5,3%,2,1,3
CSc1ncccc1C(=O)OCC(=O)NCCc1ccccc1,.,0.7%,-1.1,.,4,4,-4
O=C(NNC(=S)Nc1ccccc1)C1CC1,9,2.8%[38.3 µM],-2.4,-8%,14,-2,-9
COC(=O)c1cc(-c2ccc(S(=O)(=O)N3CCCC(C)C3)cc2)c(C(F)(F)F)s1 (stereo not given),-12,2.9%,0.8,8%,6,2,-1
CCC(NC(=O)c1ccccc1NC(=O)c1ccc(OC)cc1)C(=O)N1CCCC1 (stereo not given),-2,1.1%,-4.7,7%,2,-2,-5
COc1ccccc1C(c1c(O)nc(SC)[nH]c1=O)c1c(O)nc(SC)[nH]c1=O,.,1.4%,-1.0,.,8,-7,0
COc1ccc(C(CCc2ccc(C)o2)NC(=O)Nc2ccc(OC)cc2OC)cc1 (stereo not given),21,0.0%[38.3 µM],-3.7,-3%,-12,-20,-16
O=C(NC(=S)N1CCCCC1)c1cccnc1,-3,-0.1%,-1.3,?,5,1,-8
O=S(=O)(NCc1ccccc1)c1cccs1,15,-0.5%,-4.0,10%,-7,-19,0
O=C1C=C(c2cc(Cl)cc(Cl)c2)C[C@@H](c2ccc3c(c2)OCO3)C1,0,0.9%,-1.7,.,4,-17,-7
COc1ccc(/C=N/NC(=O)c2ccc(Br)cc2)c(OC)c1,6,4.5%,-0.2,9%,-14,2,-20
COc1ccc(NC(=O)C(NC(=O)c2ccc(C)cc2)c2ccccc2)cc1 (stereo not given),12,2.4%,-3.5,-7%,-8,0,-4
COc1cc(C(=O)NNC(=O)CNC(=O)C2CCCCC2)ccc1OC(C)C,.,-3.3%,-4.2,.,-1,4,-1
COc1ccc(S(=O)(=O)N2CCN(C(C)C(=O)Nc3ccc(C(C)C)cc3)CC2)cc1 (stereo not given),-18,-2.5%,0.7,.,-3,3,4
O=C(NCC1CCCO1)C(Cc1ccccc1)N1C(=O)C2C3C=CC(C4CC34)C2C1=O (stereo not given),-26,0.5%,-1.0,14%,.,1,-1
Cc1ccc(C)c(Cc2c(C)nc(C)[nH]c2=O)c1,-7,0.0%,-3.9,1%,0,2,-12
Cc1nn(Cc2c(F)c(F)c(F)c(F)c2F)c(C)c1NC(=O)c1cccc(COc2ccc(Cl)cc2)c1,-4,23%[38.3 µM],-1.2,-4%,9,1,-8
COc1ccccc1NS(=O)(=O)c1cccc(C(=O)N/N=C(\C)c2cccnc2)c1,7,0.7%,1.5,.,-21,-1,-2
O=C(NCc1ccccn1)C1CCN(S(=O)(=O)c2ccc(Br)cc2)CC1,8,-0.1%,2.9,5%,-9,-14,-5
CSc1ccc(NC(=O)N2CC(C)OC(C)C2)cc1 (stereo not given),-24,2.0%,0.4,22%,1,1,-27
Cc1ccc(S(=O)(=O)c2cc3c(=O)n4cccc(C)c4nc3n(CCc3ccccc3)c2=N)cc1C,.,1.8%,-1.0,.,.,0,-9
C=CCn1c(COc2ccc(F)cc2)nnc1SCC(=O)NC1CC1,-8,1.6%,-2.9,.,4,5,-4
CC(=O)Oc1cccc(/C=c2\sc3nc(-c4ccco4)nn3c2=O)c1,5,-1.7%,-2.4,-13%,-3,-15,-14
Cc1c(C(=O)Nc2ccc(N3CCOCC3)cc2)cccc1[N+](=O)[O-],-4,1.3%,-3.6,18%,21,-1,-7
C/C(=N\NC(=O)c1ccc(OC2CCCC2)cc1)c1ccc(O)cc1,-9,9.2%,5.4,17%,-5,-3,-10
NNC(=O)Cn1nc(Cc2ccccc2)n(N)c1=O,10,-0.3%,1.3,.,3,-1,3
Cc1ccc(CN2CC(N3CCCCC3)CS2(=O)=O)cc1 (stereo not given),.,0.1%,-3.3,.,-1,-1,-8
O=C(c1ccc(N2CCCCC2)c([N+](=O)[O-])c1)N(Cc1ccccc1)c1ccccn1,22,0.3%,-2.8,13%,?,?,-13
CC(C)c1ccc(NC(=O)C2CCCN(S(=O)(=O)c3ccc4c(c3)C(C)(C)C(=O)N4C)C2)cc1 (stereo not given),-4,-0.2%,0.4,0%,-2,-3,2
O=C(c1cc2ccccc2[nH]1)N(Cc1cccnc1)CC1CCCN(C2CCCCC2)C1 (stereo not given),-14,-0.1%,0.1,9%,-1,2,-26
COc1ccc(Cl)cc1NC(=O)C(C)OC(=O)C1=NNC(=O)CC1 (stereo not given),-2,0.3%,2.7,.,.,15,-17
CCC1=C(OC(=O)N(CC)CC)N2C(=O)OC(=NCCc3c[nH]c4ccccc34)[C@]2(Cc2ccccc2)[C@H]2C1=CC[C@H]1C(=O)N(C)C(=O)[C@H]12,-13,0.9%,-3.3,32%&3%[activator],-6,-19,-7
O=C(O)c1nn(CCOc2cccc(Br)c2)c(=O)c2ccccc12,-12,0.2%,-2.1,-7%,-4,0,2

Ordered by value in D2 PAM (low to high): some entries from above
Molecule	D2 ag	Sfp PPTase inh	CtBP-E1A inh	Six1-Eya2 inh	D2 PAM
CC(=O)Oc1cccc(/C=c2\sc3nc(-c4ccco4)nn3c2=O)c1	-2.4	-13%	-3	-15	-14
O=C(c1ccc(N2CCCCC2)c([N+](=O)[O-])c1)N(Cc1ccccc1)c1ccccn1	-2.8	13%	?	?	-13
Cc1ccc(S(=O)(=O)c2cc3c(=O)n4cccc(C)c4nc3n(CCc3ccccc3)c2=N)cc1C	-1.0	.	.	0	-9

Next part
canonical_smiles,TRPV1 PAM,PINK1 modulator,D2 ag,Sfp PPTase inh,CtBP-E1A inh,Six1-Eya2 inh,D2 PAM
CCCCCCCC1(C)NC(=O)N(c2ccccc2)N1 (stereo not given),8,.,1.5,3%,-1,1,8
Cn1c(SCc2ccccn2)nc2c1c(=O)[nH]c(=O)n2C,-2,0.6%,-4.6,20%,.,-9,13
C/C(=N\NC(=S)Nc1ccccc1C)c1cc2ccccc2o1,6,-1.3%,-2.7,7%,?,-22,-6
CCC1CN(C(=O)N2CCC(C(=O)NCCc3ccc(OC)c(OC)c3)CC2)c2ccccc2O1 (stereo not given),-17,3.3%&-0.2%,-3.1,12%,-21,0,-5
CCC1C(=O)Nc2ccccc2N1C(=O)COc1ccccc1 (stereo not given),0,0.6%,0.1,9%,11,7,3
CCC(C)(C)c1nnc(NC(=O)CCC2CCCCC2)s1,.,1.7%,-1.9,.,-7,2,-6
CCCCN(CCCC)C(=S)NC(=O)C(C)(C)C,-5,2.1%,-1.3,33%[activator],18,-3,-10
COc1cc(NC(=O)C(Cc2ccccc2)n2cccc2)cc(OC)c1 (stereo not given),2,1.0%,-0.7,14%,-4,-17,-10

Screens: PubChem, National Center for Advancing Translational Sciences (NCATS)
